2A firefly: Primary qHTS Assay for Foot and Mouth Disease Virus Antivirals against NCGC Sytravon and CBC Compound Libraries: Firefly Luciferase Signal | HEK cells with a luciferase reporter of 2A StopGo recoding | Potency, µM (doses to about 57.5 µM), for inactives: at the top dose signal change, negative = less light | hit rate 0.23% among 120,000; active = well fitted falling curve with a large enough effect; inconclusive = small, poorly fitted or top-dose-only effect; inactive = no such curve, though single readings can be large or run the other way; note: nearly all actives have a fitted effect of over 60% in size; overnight with compound
2A Renilla: Primary qHTS Assay for Foot and Mouth Disease Virus Antivirals against NCGC Sytravon and CBC Compound Libraries: Renilla Luciferase Signal. HEK cells with a luciferase reporter of 2A StopGo recoding. Potency, µM (series often up to 57.5 µM), for the others: at the highest dose signal change, negative = less light. hit rate 0.32% among 120,000; active means well fitted falling curve with a large enough effect; inconclusive means small, poorly fitted or top-dose-only effect; inactive means no such curve, though single readings can be large or run the other way; note: nearly all actives have a fitted effect of over 55% in size; overnight with compound
Numbers without * were called inactive; ? = inconclusive; [ ] = dose if it differs, or a comment. % is set by controls: 0 for no effect and ±100 for the full control effect; potency is the fitted concentration of half-maximal effect.

Screens in order – 2A firefly, 2A Renilla
- COc1cc(-c2noc(-c3ccc(NCc4cccnc4)c([N+](=O)[O-])c3)n2)cc(OC)c1OC
  -10.0%, -2.8%
- CCCNC(=O)c1ccc(CSc2nc3cccnc3n2Cc2ccc(OC)cc2)cc1
  32.3%[activator], 10.6%
- CCOc1ccc(NC(=O)c2nn(Cc3ccccc3)c(=O)c3ccccc23)cc1OCC
  4.8%, 1.4%
- CCOCCc1nn2c(=O)cc(COC(=O)CNC(=O)c3cccc(C)c3)nc2s1
  -10.9%, -2.0%
- O=C(CSc1ncnc2c1sc1cccc(F)c12)NC1CCCCC1
  0.0%, 9.5%
- CC1CCC(C(=O)NC(C(=O)Nc2ccc3c(c2)OCO3)C(C)C)CC1 (stereo not given)
  4.1%, -1.2%
- CCCCN(C)S(=O)(=O)c1ccc2c(c1)c(=O)n(CC(=O)N1CCCCCC1)c(=O)n2C
  33.3%[activator], 0.0%
- N#Cc1ccc(S(=O)(=O)N2CCC(C(=O)Nc3ccnn3Cc3ccccc3)CC2)cc1
  ?, -20.6%
- COc1cc(Cl)c(C)cc1NC(=O)CCCN1C(=O)C(c2ccccc2)Oc2cccnc21 (stereo not given)
  3.0%, 9.4%
- Cc1c(-c2cccc(NC(=O)Nc3ccc(Cl)cc3)c2)nc2ncccn12
  45.2%[activator], 3.2%
- O=C(Cn1nnc2ccccc2c1=O)NC(=O)Nc1ccccc1F
  6.5%, -7.7%
- CCn1nc(C(=O)Nc2ccc(I)cc2C)c2ccccc2c1=O
  7.9%, -1.3%
- O=C1C2=C(Nc3ccccc3SC2c2ccccc2C(F)(F)F)c2ccccc21 (stereo not given)
  -13.9%, -8.3%
- COc1cc(NC(=O)C2CCCN(S(=O)(=O)c3ccc4c(c3)oc(=O)n4C)C2)c(C(=O)O)cc1OC (stereo not given)
  -7.4%, -5.5%
- Cc1nc(NCc2ccc3c(c2)OCO3)c2c3c(sc2n1)CCCC3
  55.5%[activator], ?
- COC(=O)CCNC(=O)CCC1CCCC1
  0.4%, 7.7%
- CC(=C/c1ccccc1)/C=N/Nc1ccc(Cl)cc1
  211.1%[activator], 25.9%
- CCN(CC)CCNC(=O)c1ccc2c(c1)NC(=O)C(CS(=O)(=O)Cc1ccc(F)cc1Cl)N2 (stereo not given)
  0.0%, -15.5%
- CC(C)C(=O)Nc1ccc(-c2nc3ccccc3o2)cc1
  107.2%[activator], 2.2%
- Cc1cc(NC(=O)Cc2ccsc2)ccc1N1CCCC1=O
  0.0%, -11.3%

Screens in order – 2A firefly, 2A Renilla
- O=C(NCc1ccccn1)C1CC2CCC1C2 (stereo not given)
  -10.0%, -12.1%
- CC/C=C(/C)C(=O)NCC(c1cccs1)N(C)C (stereo not given)
  -5.6%, -4.3%
- COc1ccccc1CNC(=O)c1ccc2c(c1)N(Cc1cccc(C)c1)C(=O)c1ccccc1S2(=O)=O
  -4.6%, 29.3%
- CCCOC(=O)c1cc(NC(=O)c2cccc(C)c2OC)ccc1N1CCOCC1
  39.4%[activator], 53.6%[activator]
- COc1ccccc1CNC(=O)CCCCn1c(=O)c2ccccc2n(CC(=O)Nc2cccc(Cl)c2)c1=O
  -12.6%, -11.3%
- COc1ccccc1N1CCN(C(=O)C2CCCN(S(=O)(=O)c3ccc4c(c3)oc(=O)n4C)C2)CC1 (stereo not given)
  -29.8%, ?
- Cc1ccc(NC(=O)C(Cc2ccccc2)NS(=O)(=O)c2cccs2)cc1Cl (stereo not given)
  -19.0%, 1.8%
- CCc1ccc(NC(=O)CCCc2ccc(OC)cc2C)cc1
  0.0%, 22.0%
- O=C(NCc1ccccc1Cn1cccn1)c1cn[nH]c1-c1ccccc1
  -13.5%, -15.0%
- Cc1ccc(-c2csc(-c3nc(-c4ccc(Br)s4)cs3)n2)cc1
  1.5%, -15.8%
- Cc1ccc(C(C)C)c(OCC(=O)Nc2ccc3c(c2)nc(CN2CCCC2)n3C)c1
  -22.2%, -14.4%
- CC(OC(=O)c1cncc(Br)c1)C(=O)C12CC3CC(CC(C3)C1)C2 (stereo not given)
  11.1%, 13.0%
- CCCN(CCC)C(=O)C(CCC(=O)OCCCN1CCN(CCOC(=O)Cc2c(C)n(C(=O)c3ccc(Cl)cc3)c3ccc(OC)cc23)CC1)NC(=O)c1ccccc1 (stereo not given)
  -10.6%, -1.4%
- COCCCNC(=O)c1cc(C)nc2ccccc12
  -10.3%, -8.6%
- Cc1ccc(CSc2nc(-c3cccs3)ccc2C#N)cc1
  -10.8%, 14.4%
- COc1cccc(NC(=O)c2oc3ccccc3c2NC(=O)C23CC4CC(CC(C4)C2)C3)c1
  26.8%, -11.1%
- CCOC(=O)c1c(S(=O)(=O)NCC(=O)Nc2cc(C)ccc2OC)c(C)n(C)c1C
  -8.4%, 41.8%[activator]
- CCN(C(=O)Cc1nc(-c2cccs2)oc1C)c1cccc(Br)c1
  -13.9%, -4.4%
- O=C(Cc1ccc(Br)cc1)NC1=NCCS1
  126.8%[activator], 11.3%
- COc1ccc(N2CCN(Cc3nc4c(c(=O)n(C)c(=O)n4C)n3C(C)C)CC2)cc1
  -6.5%, -9.6%

A draw from above in order of SMILES length, smallest number first.
Screens in order – 2A firefly, 2A Renilla
- CC/C=C(/C)C(=O)NCC(c1cccs1)N(C)C (stereo not given)
  -5.6%, -4.3%
- CCc1ccc(NC(=O)CCCc2ccc(OC)cc2C)cc1
  0.0%, 22.0%
- CCOC(=O)c1c(S(=O)(=O)NCC(=O)Nc2cc(C)ccc2OC)c(C)n(C)c1C
  -8.4%, 41.8%[activator]

The list continues:
Screens in order – 2A firefly, 2A Renilla
- O=C(CSc1nnnn1C1CC1)c1c[nH]c2ccccc12
  123.3%[activator], 1.9%
- CC(C)(C)C(O)(CC#CCN1CCCC1)c1ccccc1 (stereo not given)
  -2.6%, -2.4%
- O=C1CC(c2ccc3c(c2)OCO3)c2ncn(-c3cccc(C(F)(F)F)c3)c2N1 (stereo not given)
  -1.5%, 7.5%
- COc1ccc(CCNc2ncnc3c2c(-c2ccccc2)cn3-c2ccc(F)cc2)cc1OC
  -28.3%, -9.3%
- COc1ccc(C(=O)/C=C/c2ccc(F)cc2)c(OC(=O)c2ccccc2C)c1
  59.5%[activator], 22.5%
- CC12CC[C@H]3[C@@H](CCC4(O)CC(O[N+](=O)[O-])CCC34CO[N+](=O)[O-])C1(O)CCC2C1=CC(=O)OC1 (stereo not given in full)
  ?, 10µM*
- O=C(COc1ccc(F)cc1)Nc1ccc2nc(SCC(=O)N3CCOCC3)sc2c1
  11.6%, 15.2%
- Cc1ccc(C)c(Cn2c3ccccc3c3cnn(CC(=O)NCC(C)c4ccccc4)c(=O)c32)c1 (stereo not given)
  -3.6%, -17.4%
- CCc1ccc2oc(=O)cc(CN3CCCCCC3)c2c1
  23.3%, 4.6%
- CO/N=C1\CN(c2nc3c(cc2F)c(=O)c(C(=O)O)cn3C2CC2)CC1CN (stereo not given)
  -3.9%, -5.4%
- CC1CCc2c(sc(NC(=O)COc3ccccc3)c2C(=O)Nc2ccccc2Cl)C1 (stereo not given)
  -16.0%, -8.4%
- COc1ccc(-c2cc(C(C)=O)c(C)n2CCC(=O)Nc2cc(C)ccc2OC)cc1
  -24.9%, -4.1%
- CCCCOC(=O)c1ccc(Nc2ncnc3c2cnn3-c2cccc(C)c2)cc1
  23.1%, 0.3%
- Cc1ccc(NC(CNS(=O)(=O)c2ccc(Cl)cc2)c2ccccc2)cc1 (stereo not given)
  -0.1%, 105.9%[activator]
- CCN1C(=O)C(O)(CC(=O)c2ccc3c(c2)OCO3)c2ccccc21 (stereo not given)
  -4.9%, -6.3%
- CC(C)c1ccc(NC(=O)CN2C(=O)COc3ccc(S(=O)(=O)Nc4ccccc4)cc32)cc1
  -14.8%, -14.5%
- COCCn1c(SC(C)C(N)=O)nnc1-c1cccc(C)c1 (stereo not given)
  -10.1%, -10.6%
- CCOC(=O)c1cccc(Nc2nc3ccccc3nc2NS(=O)(=O)c2ccccc2)c1
  2.9%, -2.0%
- CCn1c(=O)c2sccc2n2c(CCCC(=O)N3CCN(c4ccccc4OC)CC3)nnc12
  -13.8%, 1.9%
- COC(=O)C(CCSC)NC(=O)c1cc2c(n(-c3ccccc3)c1=O)CC(C)(C)CC2=O (stereo not given)
  -21.9%, 3.4%

Screens in order – 2A firefly, 2A Renilla
- CC(=O)c1c(C)[nH]c(C(=O)Cn2cnc3cc(F)ccc3c2=O)c1C
  27.9%, -10.1%
- COC(=O)c1c(NC(=O)Cc2coc3ccc(C(C)C)cc23)sc2c1CCC2
  -18.8%, -9.9%
- CCCC1=Nc2cc(C(=O)NCCc3ccc(OC)cc3OC)ccc2Sc2ccccc21
  ?, ?
- Cc1cccc(Oc2coc3cc(OC(=O)c4ccc(F)cc4)ccc3c2=O)c1
  49.0%[activator], 8.9%
- Cc1cc(C)c2c(CN3CCN(CCO)CC3)cc(=O)oc2c1
  2.0%, -5.0%
- Cc1csc(NC(=O)CCc2ncc(-c3ccc(C)c(C)c3)o2)n1
  10.4%, -9.7%
- O=C(CSc1ncc2c(n1)-c1ccccc1N(Cc1ccc(F)cc1)S2(=O)=O)c1ccc(Cl)cc1
  -9.4%, 23.8%
- Cc1ccc2ncc(C(=O)NCCc3ccc(S(N)(=O)=O)cc3)c(=O)n2c1
  -8.4%, 5.4%
- Cc1ccc(OCCC(=O)Nc2c(C)nn(C)c2C)cc1C
  0.6%, -9.0%
- Cc1nn(CN2CCN(S(=O)(=O)c3c(Cl)cccc3Cl)CC2)c(=O)c2ccccc12
  0.8%, -4.2%
- Cc1ccc(N(C(C)C(=O)N2CCCCC2)S(C)(=O)=O)cc1 (stereo not given)
  -4.3%, -1.4%
- COc1cccc(C(=O)Nc2ccc3oc(C)nc3c2)c1OC
  45.6%[activator], 17.6%
- CCN(Cc1cccs1)C(=O)c1ccc(C#N)cc1
  3.8%, 36.6%[activator]
- O=C(Cn1ccc2ccc(OCc3ccccc3)cc21)NC1CC1
  0.0%, 6.1%
- COc1ccccc1CNC(=O)CSc1nc(-c2cccs2)nc2ccccc12
  -1.3%, -1.3%
- CCCN1C(=O)C2(c3ccccc31)c1c(oc3cc(C)c(C)cc3c1=O)C(=O)N2CCCOC (stereo not given)
  22.7%, -12.2%
- COc1cccc(C(=O)NCCSc2c(-c3ccc(F)cc3)[nH]c3ccccc23)c1OC
  ?, -6.6%
- COc1ccc(CCC(=O)NCc2nc3cccnc3n2Cc2cccc(OC)c2)cc1
  -17.8%, 25.8%
- O=c1[nH]c2sc3c(c2c2nc(-c4ccc(O)cc4)nn12)CCC3
  0.0%, 18.2%
- COc1ccc(C2SCC(=O)Nc3[nH]ncc32)cc1OC1CCCC1 (stereo not given)
  8.8%, 11.3%

Screens in order – 2A firefly, 2A Renilla
- COc1ccc(OCCn2c3ccccc3n3nc(CCC(=O)O)c(=O)nc23)cc1
  -5.7%, -7.7%
- Cc1ccc(C)c(NC(=O)CN(C)C(=O)c2cccc(S(=O)(=O)NCC3CCCO3)c2)c1 (stereo not given)
  15.0%, 40.8%[activator]
- Cc1cc(NC(=O)CSc2nnc(-c3ccncc3)n2C2CC2)no1
  17.6%, 15.0%
- CC(C)CN1CCc2nc(N3CCN(c4ncccn4)CC3)ncc2C1
  94.4%[activator], 3.2%
- COc1cccc(/C=C/c2nc(C#N)c(NCCCn3ccnc3)o2)c1
  65.4%[activator], 8.3%
- Cn1c(=O)[nH]c(=O)c2c1nc(N1CCN(C/C=C/c3ccccc3)CC1)n2Cc1ccc(Cl)cc1
  2.2%, -5.6%
- CC(NC(=O)CSCc1cccs1)C1CCCO1 (stereo not given)
  0.0%, -14.6%[1.06 µM]
- Cc1cc(Nc2cccc(F)c2)n2nc(-c3ccco3)nc2n1
  15.1%, 3.9%
- Cc1cc(C)cc(OC(=O)c2snnc2C)c1
  -2.7%, -6.6%
- Cc1ccc(NC(=O)Nc2cn(CC(C)C)c(=O)c3ccccc23)cc1N(C)C
  25.6%, -16.5%
- CC1CCN(C(=O)C2CCN(C(=O)c3ccc(C#N)cc3)CC2)CC1
  10.6%, 17.7%
- C=CCN(Cc1cccs1)C(=O)CCl
  1.0%, -8.7%[1.06 µM]
- CCc1ccc2occ(CC(=O)Nc3c(C(=O)c4ccc(F)cc4)oc4ccccc34)c2c1
  -12.0%, -3.7%
- COc1ccccc1NC(=O)CSc1nnc(N)s1
  -8.9%, -5.5%
- C=CCC1(/C=C/C)CCCCN1 (stereo not given)
  13.0%, 13.3%
- CC1CCCN(C(=O)Cn2ncc3c([nH]c4ccccc43)c2=O)C1 (stereo not given)
  -6.8%, -2.6%
- Cc1ccc(NC(=S)Nc2ccccc2)nc1
  127.1%[activator], 73.4%[activator]
- CC(C)(C)NC(=O)c1ccccc1-c1ccccc1C(=O)NC(C)(C)C
  -7.4%, -6.5%
- CCCCN(Cc1ccccc1)c1ccc(NS(=O)(=O)c2ccc(CC)cc2)cc1C(=O)O
  11.0%, 70.1%[activator]
- COc1ccc(CNc2nc3ccccc3nc2NS(=O)(=O)c2cccc(C)c2)cc1
  22.9%, 9.3%

Screens in order – 2A firefly, 2A Renilla
- CCc1ccccc1NC(=O)Cn1ccn(Cc2ccccc2)c(=O)c1=O
  -9.5%, -12.2%
- Cc1ccc(NC(=O)Cn2c(=O)n(Cc3ccco3)c(=O)c3sc4ccccc4c32)cc1C
  -12.7%, 7.5%
- CC(C)c1nn(C)c(Cl)c1CNCc1ccc2c(c1)OCCO2
  -8.0%, 7.5%
- Cn1nc(CC(=O)Nc2ccccc2O)c2ccccc2c1=O
  ?, ?

This is a subset; rates above refer to the full screens.
